Screening data: PubChem, National Center for Advancing Translational Sciences (NCATS)
StopGo FLuc – Primary qHTS Assay for Foot and Mouth Disease Virus Antivirals against NCGC Sytravon and CBC Compound Libraries: Firefly Luciferase Signal. HEK cells with a luciferase reporter of 2A StopGo recoding. AID 1745856, 2022. Potency, µM (titrated, usually from 57.5 µM), without a hit: at the highest dose signal change, negative = less light. actives 0.23% (n = 120,000); active = well fitted falling curve with a large enough effect; inconclusive = small, poorly fitted or top-dose-only effect; inactive = no such curve, though single readings can be large or run the other way; note: nearly all actives have a fitted effect of over 60% in size; overnight with compound
2A Renilla – Primary qHTS Assay for Foot and Mouth Disease Virus Antivirals against NCGC Sytravon and CBC Compound Libraries: Renilla Luciferase Signal; HEK cells with a luciferase reporter of 2A StopGo recoding; Potency, µM (doses to about 57.5 µM), for the others: at the top dose signal change, negative = less light; actives 0.32% (n = 120,000); AID 1745857, 2022; active means well fitted falling curve with a large enough effect; inconclusive means small, poorly fitted or top-dose-only effect; inactive means no such curve, though single readings can be large or run the other way; note: nearly all actives have a fitted effect of over 55% in size; overnight with compound
Starred values were filed as active, the others as inactive; & = joins results of further samples; [ ] = dose if it differs, or a comment. % is set by controls: 0 for no effect and ±100 for the full control effect; potency is the fitted concentration of half-maximal effect.

Preview (3 entries):
For CCc1ccc(CNC(=O)c2ccc(CS(=O)(=O)Cc3cccc(C)c3)o2)cc1 the results were StopGo FLuc 0% and 2A Renilla -12%.
`CCOc1ccc(NC(=O)Nc2cc3c(cc2N2CCCCC2)n(C)c(=O)n3C)cc1` gave StopGo FLuc -21% and 2A Renilla -1%.
For CN(C)c1ccc(NC(=O)CC(NCc2cccnc2)C(=O)O)cc1 (stereo not given) the results were StopGo FLuc -9% and 2A Renilla -14%.

All compounds of this part, from the start:
For CCc1ccc(CNC(=O)c2ccc(CS(=O)(=O)Cc3cccc(C)c3)o2)cc1 the results were StopGo FLuc 0% and 2A Renilla -12%.
`CCOc1ccc(NC(=O)Nc2cc3c(cc2N2CCCCC2)n(C)c(=O)n3C)cc1` gave StopGo FLuc -21% and 2A Renilla -1%.
For CN(C)c1ccc(NC(=O)CC(NCc2cccnc2)C(=O)O)cc1 (stereo not given) the results were StopGo FLuc -9% and 2A Renilla -14%.
For COc1ccc2cc(CCC(C)=O)ccc2c1 the results were StopGo FLuc 92%[activator][11.5 µM] and 2A Renilla 11%.
Screening COc1ccc(Sc2nn3c(=O)cc(C)nc3s2)cc1 returned StopGo FLuc 25% and 2A Renilla -15%.
For O=C(NCCN1CCCCC1)C(=O)Nc1cccc(N2CCCS2(=O)=O)c1 the results were StopGo FLuc -1% and 2A Renilla -5%.
For Cc1ccc(S(=O)(=O)Cc2nc(-c3ccc(C(=O)NC4CCCC4)cc3)oc2C)cc1 the results were StopGo FLuc 16% and 2A Renilla 10%.
For COc1cc(C(=O)CSc2ccc(Cl)cc2)cc(OC)c1OC the results were StopGo FLuc 0% and 2A Renilla 16%.
Screening COc1ccc(C(=O)c2oc3ccccc3c2NC(=O)COc2ccc(C)cc2)cc1 returned StopGo FLuc -6% and 2A Renilla -2%.
Screening CC(C(=O)N(C)CC(=O)Nc1ccccc1C(F)(F)F)N(C)Cc1cccc(F)c1 (stereo not given) returned StopGo FLuc 7% and 2A Renilla 4%.

The final 4 entries of the section before lead into the next:
For Cc1ccc(S(=O)(=O)Cc2nc(-c3ccc(C(=O)NC4CCCC4)cc3)oc2C)cc1 the results were StopGo FLuc 16% and 2A Renilla 10%.
For COc1cc(C(=O)CSc2ccc(Cl)cc2)cc(OC)c1OC the results were StopGo FLuc 0% and 2A Renilla 16%.
Screening COc1ccc(C(=O)c2oc3ccccc3c2NC(=O)COc2ccc(C)cc2)cc1 returned StopGo FLuc -6% and 2A Renilla -2%.
Screening CC(C(=O)N(C)CC(=O)Nc1ccccc1C(F)(F)F)N(C)Cc1cccc(F)c1 (stereo not given) returned StopGo FLuc 7% and 2A Renilla 4%.
`CCCCNc1nc2ccccc2nc1NS(=O)(=O)c1cccc(C)c1` gave StopGo FLuc 16% and 2A Renilla 180%[activator].
CCn1nnc(NC(=O)c2cc3ccccc3cc2OC)n1 was read as StopGo FLuc 41%[activator] and 2A Renilla -8%.
`COC(=O)c1ccc(COC(=O)c2cc(OC)ccc2Br)cc1` gave StopGo FLuc 119%[activator] and 2A Renilla 21%.
COCCN1C(=O)C(O)=C(C(=O)c2ccc(C)o2)C1c1ccc(O)c(OC)c1 (stereo not given) was read as StopGo FLuc 1% and 2A Renilla -6%.
O=C(COCc1cc(-c2ccc3c(c2)OCO3)on1)N1CCN(c2cccc(C(F)(F)F)c2)CC1 was read as StopGo FLuc -12%&-14% and 2A Renilla -13%&-25%.
`CCOC(=O)c1sc(NC(=O)c2cc(Cl)ccc2F)nc1C` gave StopGo FLuc 97%[activator] and 2A Renilla 5%.
`N#Cc1ccc(-c2nc3ccccc3s2)cc1` gave StopGo FLuc 228%[activator] and 2A Renilla 10%.
Cc1c(-c2ccc(Cl)cc2)c(=O)oc2ccc(OS(=O)(=O)c3ccccc3)cc12 was read as StopGo FLuc -19% and 2A Renilla inconclusive.
`COc1cccc(C(=O)Nc2ccc(C(=O)OCc3cc(=O)n4nc(C5CC5)sc4n3)cc2)c1` gave StopGo FLuc 22% and 2A Renilla -1%.
Cc1ccc(-c2ocnc2C(=O)NCc2ccc(OC(C)C)cc2)s1 was read as StopGo FLuc 77%[activator] and 2A Renilla 11%.
Screening Cc1ccc([N+](=O)[O-])cc1S(=O)(=O)NC(c1ccccc1)c1cccs1 (stereo not given) returned StopGo FLuc 0% and 2A Renilla 113%[activator].
For Cc1ccc(-c2nn(CCC(=O)NCc3ccccc3)c(=O)c3ccccc23)cc1 the results were StopGo FLuc -1% and 2A Renilla 9%.
COC(=O)c1sc(S(=O)(=O)N2CCN(c3ccc(OC)cc3)CC2)c(C(=O)OC)c1C was read as StopGo FLuc -13% and 2A Renilla -6%.
For NC(=O)C1CCN(C(=O)c2ccc3c(c2)N(Cc2cccc(Cl)c2)C(=O)c2ccccc2S3=O)CC1 (stereo not given) the results were StopGo FLuc -14% and 2A Renilla 24%.
Screening CC(C)(C)c1ccc(-c2nnc(SCC(=O)N3CCC3)n2C2CCCC2)cc1 returned StopGo FLuc inconclusive and 2A Renilla inconclusive.
`CCCCCc1ccc(-c2ccc(-c3ccc(/C=C/C#N)cc3)nc2)cc1` gave StopGo FLuc 0% and 2A Renilla -10%.
`O=C(Nc1cccnc1)c1ccc(COc2ccccc2Br)cc1` gave StopGo FLuc -19% and 2A Renilla inconclusive.
For O=C(Nc1cc(-n2cnnn2)ccc1Cl)c1ccc(Br)o1 the results were StopGo FLuc 9% and 2A Renilla 7%.
Screening CCn1cnc2c(=O)oc3ccc(S(=O)(=O)Nc4ccc(OC)cc4)cc3c21 returned StopGo FLuc -7% and 2A Renilla -4%.
Cc1ccc(C)c(Cn2c(=O)n(C(C)C)c(=O)c3oc4ccccc4c32)c1 was read as StopGo FLuc -8% and 2A Renilla -10%.
Screening O=C(c1cc2cc(Cl)ccc2[nH]1)N(Cc1ccccc1)Cc1ccco1 returned StopGo FLuc 4% and 2A Renilla 246%[activator].
`CC(CCc1ccccc1)NC(=O)c1cc(=O)[nH]c2ccccc12` (stereo not given) gave StopGo FLuc 4% and 2A Renilla -1%.
COc1ccccc1CCNC(=O)CSc1nc(Cl)nc2nc[nH]c12 was read as StopGo FLuc 10% and 2A Renilla 3%.
For COc1ccc(C)cc1Nc1nc2ccccc2nc1NS(=O)(=O)c1cccc(C)c1 the results were StopGo FLuc -3% and 2A Renilla -7%.
COc1cc2c(cc1NC(=O)COc1ccc(Br)c(C)c1)oc1ccccc12 was read as StopGo FLuc -5% and 2A Renilla -5%.
Screening COc1ccc(S(=O)(=O)c2c(O)c3ccc(C(=O)NCc4ccc(Cl)cc4)cc3[nH]c2=O)cc1 returned StopGo FLuc -11% and 2A Renilla 70%[activator].
Screening O=C(Nc1nnc(S(=O)(=O)N2CCCCC2)s1)c1ccc(Cl)cc1 returned StopGo FLuc -1% and 2A Renilla -13%.
COC(=O)c1ccccc1NC(=O)c1nn(-c2ccc(OC)cc2)c(=O)c2c1c1ccccc1n2C was read as StopGo FLuc 8% and 2A Renilla 0%.
Cc1ccc(S(=O)(=O)c2nc(-c3ccccc3Cl)oc2N2CCCCCC2)cc1 was read as StopGo FLuc 15% and 2A Renilla 318%[activator].
Screening CCOCCn1c(-n2nc(C)c(C)c2C)nc2c1c(=O)[nH]c(=O)n2C returned StopGo FLuc 1% and 2A Renilla 5%.
`Cc1ccc(N(C)C(=O)c2cc(S(=O)(=O)N3CCOCC3)cn2C)cc1` gave StopGo FLuc -18% and 2A Renilla -6%.
COC(=O)[C@H](CC(C)C)N(Cc1cn(CC2CCCCC2)nn1)S(=O)(=O)c1ccccc1Br was read as StopGo FLuc -4% and 2A Renilla 0%.
COc1ccc(-c2csc(NC(=O)c3nn(C)c(=O)c4ccccc34)n2)cc1 was read as StopGo FLuc 126%[activator] and 2A Renilla 11%.
For CC(C)C(=O)Nc1ccc([N+](=O)[O-])c(C(F)(F)F)c1 the results were StopGo FLuc -6% and 2A Renilla 0%.
`COC(=O)CN1CCN(c2nc3c(c(=O)[nH]c(=O)n3C)n2Cc2ccc(Br)cc2)CC1` gave StopGo FLuc 7% and 2A Renilla -5%.
Screening CCOc1ccc(/C=C/c2nc(C#N)c(NC3CCCCC3)o2)cc1 returned StopGo FLuc 20% and 2A Renilla 1%.
CC(C)(C)NS(=O)(=O)c1ccc2nc(NC(=O)c3cccnc3)sc2c1 was read as StopGo FLuc 33%[activator] and 2A Renilla 190%[activator].
`O=Cc1c(-c2cccc(Br)c2)[nH]c2ccccc12` gave StopGo FLuc 61%[activator] and 2A Renilla 39%[activator].
For CC(=O)Nc1cccs1 the results were StopGo FLuc 9% and 2A Renilla 6%.
`COc1ccccc1CCNC(=O)CCc1c(C)c2cc3c(C)coc3c(C)c2oc1=O` gave StopGo FLuc -2% and 2A Renilla 3%.
For CC(C)C(C)NC(=O)COc1ncnc2c(Cl)cc(Cl)cc12 (stereo not given) the results were StopGo FLuc 0% and 2A Renilla -4%.
Screening Cc1ccc(S(=O)(=O)C(CNC(=O)COc2ccccc2)c2cccs2)cc1 (stereo not given) returned StopGo FLuc -16% and 2A Renilla 31%[activator].
`CCCc1nc(SC)ncc1C(=O)Nc1ccc(Cl)cc1C` gave StopGo FLuc 12% and 2A Renilla 6%.
`COc1ccc(-c2oc3ncn4nc(-c5ccccc5C)nc4c3c2-c2ccc(OC)cc2)cc1` gave StopGo FLuc -14% and 2A Renilla -16%.
Screening CN(C)C(=O)CN1CCN(C(C(=O)O)c2c(-c3ccccc3)[nH]c3ccccc23)CC1 (stereo not given) returned StopGo FLuc 0% and 2A Renilla 31%[activator].
For CCNS(=O)(=O)c1cccc(C(=O)N2CCCC2c2ccc(OCC)cc2)c1 (stereo not given) the results were StopGo FLuc -1% and 2A Renilla 52%[activator].
For N#Cc1ccc(N2CCC(C(=O)Nc3cccc(S(=O)(=O)N4CCCC4)c3)CC2)nc1 the results were StopGo FLuc -37% and 2A Renilla 17%.
For CCCCc1cc(=O)oc2cc(OC(C)C(=O)NCc3cccnc3)ccc12 (stereo not given) the results were StopGo FLuc 8% and 2A Renilla 6%.
For O/N=C/c1c(O)c(Br)cc2oc3c(c12)CCCC3 the results were StopGo FLuc 4% and 2A Renilla -3%.
Screening Cc1cc(=O)c2cc(C(=O)Nc3ccccc3)ccc2[nH]1 returned StopGo FLuc 12% and 2A Renilla -6%.
`CC(C)Oc1ccc(C(CC(=O)O)NC(=O)c2ccc(C(C)(C)C)cc2)cc1` (stereo not given) gave StopGo FLuc 52%[activator] and 2A Renilla 2%.
For CCCSCCCNC(=O)c1ccc(Cn2c(=O)c3cccn3c3cccnc32)cc1 the results were StopGo FLuc -11% and 2A Renilla 73%[activator].
For Cc1cc(Nc2cccc(C)c2C)n2cnnc2n1 the results were StopGo FLuc -3% and 2A Renilla -10%.
Screening CC(=O)NC1=NN(C(C)=O)C2(S1)C(=O)N(CCc1ccccc1)c1c(C)cc(C)cc12 (stereo not given) returned StopGo FLuc 3% and 2A Renilla 291%[activator].
Cc1cccc(C(=O)Nc2cc3c(cc2C)n(C)c(=O)n3C)c1 was read as StopGo FLuc 0% and 2A Renilla 6%.
COC(=O)Cn1c(=O)c2c3c(sc2n(CC(=O)c2ccc(Cl)cc2)c1=O)CCC3 was read as StopGo FLuc -13% and 2A Renilla 6%.
`Cc1ccc(-c2ccc(=O)n(CCC(=O)NCCc3ccccc3)n2)cc1` gave StopGo FLuc 80%[activator] and 2A Renilla 2%.
Screening CCc1ccccc1NC(=O)CSc1nc2c(=O)[nH]cnc2n1CC returned StopGo FLuc 19% and 2A Renilla 0%.
For CCCCCC1Nc2cc(C(F)(F)F)c(S(N)(=O)=O)cc2S(=O)(=O)N1 (stereo not given) the results were StopGo FLuc -8% and 2A Renilla 6%.
`CCNC(=O)NC(=O)CN(C)C(C)C(C)(C)C` (stereo not given) gave StopGo FLuc -3% and 2A Renilla -12%[1.06 µM].
For Cc1oc(-c2cccc(Br)c2)nc1Cn1c(=O)cc(-c2ccccc2)c2c(C)nn(C)c21 the results were StopGo FLuc -19% and 2A Renilla -11%.
`CCOc1ccccc1NC(=O)CN1C(=O)COc2ccc(S(=O)(=O)N3CCCCC3)cc21` gave StopGo FLuc -13% and 2A Renilla 14%.
Screening O=C(Nc1nnc(C2CC2)s1)c1cc(=O)[nH]c2ccccc12 returned StopGo FLuc -4% and 2A Renilla -7%.
For CCCNC(=O)C(C)NC(=O)c1cc(-c2ccccc2)nc2ccccc12 (stereo not given) the results were StopGo FLuc -9% and 2A Renilla 0%.
For Cc1ccc(NC(=O)Cn2nc(C)c3ccccc3c2=O)cc1 the results were StopGo FLuc -1% and 2A Renilla 2%.
Screening COc1ccc(N(Cc2cccs2)C(=O)COc2ccc([N+](=O)[O-])cc2)cc1 returned StopGo FLuc -33% and 2A Renilla 12%.
Screening CCSc1ncc(Cl)c(C(=O)Nc2c(C(=O)Nc3ccccc3)oc3ccccc23)n1 returned StopGo FLuc 0% and 2A Renilla 0%.
Screening COc1ccccc1Cn1ccn(Cc2c(F)cccc2Cl)c(=O)c1=O returned StopGo FLuc 0% and 2A Renilla 63%[activator].
Cc1cn2c(=O)cc(COc3ccc(NC(=O)c4cccc(F)c4)cc3)nc2s1 was read as StopGo FLuc -15% and 2A Renilla -4%.
COc1cc(OC)c(C2CC(=O)Nc3c(-c4ccccc4)nsc32)cc1OC (stereo not given) was read as StopGo FLuc -26% and 2A Renilla -18%.
Screening O=C(Cc1ccc(F)cc1)N(Cc1cccc2[nH]ccc12)C1CC1 returned StopGo FLuc 25% and 2A Renilla 82%[activator].
CCOC(=O)C1CCC(CNC(=O)N2CCCC2c2ccc(Cl)cc2)CC1 (stereo not given) was read as StopGo FLuc -1% and 2A Renilla 15%.
For CCC(NC(=O)C1CC1)c1ccc(C)cc1 (stereo not given) the results were StopGo FLuc 13% and 2A Renilla 15%.
